Compound activity from PubChem.
HPGD inh: blocks human HPGD enzyme activity | purified HPGD, NADH fluorescence kinetic, PGE2 substrate | AID 894 | 4.3% of 150,000 active | P15428 | Potency, µM, without a hit: at the highest dose activity change, negative = inhibition, hits mostly inhibitors; active = well fitted inhibition curve with a large enough effect (not every such curve was filed as active); inconclusive = small, poorly fitted or top-dose-only effect, or another doubt; inactive = no such curve, though single readings can be large or run the other way;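 also: top concentration of the series not given in the record; plate controls included wells without enzyme; inactives centre near -10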
Target sequence (P15428 whole entry, looked up): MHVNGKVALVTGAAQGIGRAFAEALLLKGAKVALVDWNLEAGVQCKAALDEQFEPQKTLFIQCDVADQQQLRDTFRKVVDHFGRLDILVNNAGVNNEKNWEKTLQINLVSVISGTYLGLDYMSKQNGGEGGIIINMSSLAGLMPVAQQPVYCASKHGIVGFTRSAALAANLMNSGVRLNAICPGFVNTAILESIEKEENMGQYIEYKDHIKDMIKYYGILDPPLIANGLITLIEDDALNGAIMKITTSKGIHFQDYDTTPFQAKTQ
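NADH formation kinetics: reaction with 30 uM PGE2 and 1 mM NAD+ (final), 20 nM enzyme, Tris-HCl pH 8 with Tween 20, after 15 min compound preincubation at room temperature. Fluorescence change, last versus first of five reads.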
Starred values were filed as active, the others as inactive; ? = inconclusive; & = joins results of further samples. % is scaled to controls: 0 for no effect and ±100 for the full control effect; potency is read from the fitted curve at half-maximal effect. Some of the compounds tested, so the mix of outcomes need not match the whole.

HPGD inh	SMILES
-4.5%	CN1CCN(c2ccncc2S(=O)(=O)N2CCN(C)CC2)CC1
-1.6%	O=C(Nc1cccs1)Nc1ccc(F)cc1F
-18.5%	COc1cc(/C=N/NC(=O)CN(CCc2ccccc2)S(=O)(=O)c2ccc(NC(C)=O)cc2)cc(OC)c1OC
6.0%	CCn1cc(Br)c(C(=O)NC(C)c2ccccc2)n1 (configuration not stated)
-9.8%	Cc1cccc(NC(=O)C2NC(=O)CC2c2ccccc2)c1C (configuration not stated)
-12.3%	O=C(O)c1ccnc(C(=O)O)c1
-7.7%	O=C(O)c1cccc(S(=O)(=O)Nc2ccccc2Cl)c1
-16.0%	O=C(COc1ccc(S(=O)(=O)N2CCCC2)cc1Cl)NCc1ccc2c(c1)OCO2
-27.2%	O=C(N/N=C/c1c[nH]c2ccccc12)c1cccc([N+](=O)[O-])c1
-14.7%	CC(C)NC(=O)Nc1cccs1

In another format: entries from further up
SMILES	HPGD inh
O=C(Nc1cccs1)Nc1ccc(F)cc1F	-1.6%
COc1cc(/C=N/NC(=O)CN(CCc2ccccc2)S(=O)(=O)c2ccc(NC(C)=O)cc2)cc(OC)c1OC	-18.5%
CN1CCN(c2ccncc2S(=O)(=O)N2CCN(C)CC2)CC1	-4.5%
O=C(COc1ccc(S(=O)(=O)N2CCCC2)cc1Cl)NCc1ccc2c(c1)OCO2	-16.0%
O=C(N/N=C/c1c[nH]c2ccccc12)c1cccc([N+](=O)[O-])c1	-27.2%

(more compounds)
HPGD inh	SMILES
-6.4%	COc1ccccc1C(=O)N1CCN(Cc2ccc3c(c2)OCO3)CC1
?	Cc1c(C(=O)NCc2ccoc2)oc2ccc3c(c12)C(=O)CC(C)(C)O3
-14.3%	O=C(NNC(=S)Nc1ccc(F)cc1)c1ccccc1OC(F)F
1.2%	CC(=O)Nc1ccc(S(=O)(=O)NCC(=O)OCC(=O)N2CCc3ccccc32)cc1
?	CCCN(CCC)C(=O)CCSCCC(=O)N(CCC)CCC
-15.7%	O=S(=O)(c1ccc(Cl)cc1)N1CCCC1c1nc(-c2cccc(Cl)c2)no1 (configuration not stated)
-12.6%	COc1ccc(Cn2c(=O)n(Cc3ccco3)c(=N)c3c4c(sc32)COC(C)(C)C4)cc1
-12.8%	COc1ccc(OC)c(C(=O)/C=C/c2ccccc2C(F)(F)F)c1
-23.1%	COc1ccc(C2=NN(C(=O)CSc3nnc(-c4ccccc4F)o3)C(c3ccco3)C2)cc1 (configuration not stated)
-8.2%	Cc1cccc(N(CC(=O)NCCSc2nc3ccccc3s2)S(=O)(=O)c2ccccc2)c1
-19.5%	Cc1c(Cl)cccc1NC(=O)c1nc(C)n(-c2cc(OC(C)C)c(Cl)cc2Cl)n1
-21.8%&-22.5%	CN1CCN(CCC=C2c3ccccc3Sc3ccc(S(=O)(=O)N(C)C)cc32)CC1
-0.4%	CC(C)(C)CC(=O)Nc1nn[nH]n1
-13.4%	COc1cc(/C=N/NC(=O)c2cccc([N+](=O)[O-])c2)ccc1OCc1ccc(C)cc1
?	CCN(CC)S(=O)(=O)c1cccc(-c2nn(-c3ccccc3)cc2/C=C(\C#N)C(=O)NCc2ccco2)c1
-0.1%	O=C(NC1CCCCCC1)C1c2ccccc2C(=O)N1Cc1cccs1 (configuration not stated)
-10.2%	CCOC(=O)NC(NS(=O)(=O)c1ccccc1)(C(=O)OCC)C(F)(F)F (configuration not stated)
-3.7%	CCOC(=O)CSc1nc(C)c2ccc(C)cc2n1
-1.4%	COc1ccc(NC(=O)Nc2ccc(Br)cn2)cc1OC
?	c1ccc(Oc2nc3ccccc3n3cccc23)cc1

A different layout for some results above.
CCOC(=O)CSc1nc(C)c2ccc(C)cc2n1
  HPGD inh = -3.7%
COc1ccc(NC(=O)Nc2ccc(Br)cn2)cc1OC
  HPGD inh = -1.4%
c1ccc(Oc2nc3ccccc3n3cccc23)cc1
  HPGD inh = ?

Additional records follow.
HPGD inh	SMILES
-16.8%	Cc1ccc(-n2c(=O)cc(N3CCC(C)CC3)[nH]c2=O)cc1
-2.5%	CCOc1ccc(NC(=O)/C=C/c2ccccc2)c([N+](=O)[O-])c1
-13.0%	Cc1ccc(S(=O)(=O)N(C)Cc2ccc(C(=O)NN=C(CC(C)C)CC(C)C)cc2)cc1
-2.5%	CN1CCN(CCCN2c3ccccc3Sc3ccccc32)CC1
1.2%	Cc1cc(C(=O)CN2C(=O)NC3(CCCc4ccccc43)C2=O)c(C)n1Cc1ccco1 (configuration not stated)
0.7%	C/C(CC(=O)Nc1cc(C)ccn1)=N\NC(=O)C(=O)Nc1cccc(C)c1
-0.6%	O=C(NC1CCCCC1)C(c1cccs1)N(Cc1cccs1)C(=O)c1cccs1 (configuration not stated)
-5.7%	CCOC(=O)C(CC)n1cnc2c(nnn2-c2ccc(OC)cc2)c1=O (configuration not stated)
-3.4%	O=C(O)CSc1ncccc1[N+](=O)[O-]
-7.5%	COc1cc(Br)c(S(=O)(=O)Nc2c(C)n(C)n(-c3ccccc3)c2=O)cc1OC
-2.7%	O=C(c1ccc2ccccc2c1)N1CCN(c2ccc(O)cc2)CC1
-11.6%	O=C1[C@H]2CCC=C[C@H]2[C@H](c2ccccc2Br)N1Cc1ccccc1
-3.4%	CC(Oc1ccccc1F)C(=O)NCCN1CCCCC1 (configuration not stated)
?	CCOC(=O)C1Cn2c(nc3c(c2=O)C(C)(C)Cc2ccccc2-3)S1 (configuration not stated)
-6.0%	O=C(Nc1ccc(N2CCN(C(=O)c3ccco3)CC2)cc1)C(c1ccccc1)c1ccccc1
1.8%	N=c1c2c3c(sc2ncn1CCCN1CCOCC1)CCCCC3
-6.8%	OC[C@H]1O[C@@H](n2cnc3c(Nc4ccccc4)ncnc32)[C@H](O)[C@H]1O
-10.1%	Nc1ccccc1OCCOCCOc1ccccc1N
?	CCOc1cc(NC(=O)c2ccco2)c(OCC)cc1NC(=O)c1cc(OC)c(OC)c(OC)c1
-20.5%	COc1ccc(C(O)P(=O)(OC(C)C)OC(C)C)cc1OC (configuration not stated)
-1.4%	CC(/C=N\Nc1nnc2c(n1)[nH]c1c(C)cccc12)=C\c1ccco1
-3.1%	COc1ccc(CCNC(=S)Nc2cccc(C)c2C)cc1
1.3%	CN(C)CCCN1C(=O)CSC1c1ccccc1 (configuration not stated)
-4.2%	COC(=O)[C@@H](N)CSC/C=C(\C)CC/C=C(\C)CCC=C(C)C
-10.7%	COC(=O)C1(Cc2ccccc2)C=C2C(=C(C)C(=O)C2C)CN1 (configuration not stated)
-10.8%	Cc1ccc(NC(=O)C(=O)Nc2ccccn2)cc1
-8.7%	CCOC(=O)Cc1nnc(NC(=O)c2ccco2)s1
-20.8%	Cc1ccc(-c2nc(SCC(=O)NCC3CCCO3)c(-c3ccc(C)cc3)[nH]2)cc1 (configuration not stated)
?	Cc1ccc(C(=O)NC(=S)Nn2cnnc2)cc1
-4.3%	COCC(=O)N1CCC2(CC1)CCN(C(=O)Nc1ccc(OC)cc1)CC2
-3.7%	Cc1ccc(C(C(=O)NCc2ccco2)N(C(=O)CNC(=O)c2cccs2)c2ccc(C)cc2C)cc1 (configuration not stated)
-12.1%	O=C(c1nn2c(C(F)(F)F)cc(-c3cccs3)nc2c1Cl)N1CCCc2ccccc21
-5.2%	CCOC(=O)C1=C(C)OC(N)=C(C#N)C1c1ccc(OC)c(C)c1OC (configuration not stated)
-9.0%	CC(=O)N(CCC1(C(C)C)CCOC(C)(C)C1)Cc1ccco1 (configuration not stated)
-7.8%	Cc1cccc(C)c1NC(=O)CCCSc1nc2ccccc2s1
-3.1%	COCCn1c(=O)c(-c2ccccc2)nc2cnc(Nc3ccccc3)nc21
-4.4%	Cc1cc(C)c(C#N)c(Cl)n1
-3.1%	Cn1c2c(c(=O)n(C)c1=O)C(C(F)(F)F)(C(F)(F)F)N=C(CCC1CCCCC1)N2
3.5%	CCc1cccc(OCCCn2ccnc2)c1
-15.2%	CCCn1c2c(c(O)c(C(=O)NCc3ccccc3)c1=O)CCCC2
-1.0%	Cc1ccc(C(C)(C)C)c(OCCCn2ccnc2)c1
12.6µM*	CC(=O)OCCCNc1cc(Sc2ccc(Cl)cc2)c2nonc2c1[N+](=O)[O-]
2.9%	CCC(C)C(=O)N1CCCC(c2nc(-c3cccs3)no2)C1 (configuration not stated)
?	Cc1ccc(OCCCC(=O)NC(C)c2ccccc2)cc1 (configuration not stated)
-23.7%	CCOC(=O)C1=C(CC)Nc2ccccc2N=C1NC(=O)c1ccc(S(=O)(=O)N(C)C)cc1
-1.3%	COc1ccc(C2(NC(C)=O)CCN(C(=O)c3cccs3)CC2)cc1
-8.9%	O=C(c1ccco1)N1CCN(CC(=O)N(C2CCCCC2)C2CCS(=O)(=O)C2)CC1 (configuration not stated)
-16.6%	CN1CCc2c(sc3c2c(=O)n(-c2ccccc2)c2nncn32)C1
-3.3%	CNC(=O)c1cc(Nc2nnc(C)c3ccccc23)ccc1OC
-2.3%	COc1nc(Nc2cccc(C)c2)nc(N2CCCCC2)n1

The list goes on.
HPGD inh	SMILES
-22.9%	Cc1cc(C)nc(NC2=NCC(=O)N2c2cc(Cl)cc(Cl)c2)n1
?	c1ccc(CC2CCN(c3nc4ccccc4n4nnnc34)CC2)cc1
-0.4%	Cc1ccc(C(=O)c2sc3nc4c(cc3c2N)CCC4)cc1
?	CCCNC(=O)c1ccccc1NS(=O)(=O)c1ccc2c(c1)OCCO2
-14.2%	CCN(Cc1cc2ccccc2[nH]c1=O)C(=O)c1cccnc1
31.6µM*	Cc1ccsc1C(=O)Nc1ccc2c(c1)OCCO2
-15.7%	COC(=O)c1ccc(C23CC4(C2)[C@H](CN(CC2CCCCC2)[C@@H]4c2ccccc2)C3c2ccccc2)cc1 (some centres not stated)
-13.1%	COc1cc(C2Nc3ccc4ncccc4c3C3=C2C(=O)CC(C)(C)C3)cc(OC)c1O (configuration not stated)
-4.0%	CC(C)(C)NC(=O)C(c1ccco1)N(C(=O)c1csnn1)c1ccccc1 (configuration not stated)
-17.6%	CC(C)OC(=O)C(=O)NNc1ccccc1
-8.6%	O=C(Nc1ccccc1)c1ccc(Cn2cc(C(F)(F)F)ccc2=O)cc1
-3.1%	Cc1ccc(NC2=NCC(=O)N2Cc2ccccc2)c(C)c1
-20.1%	CC(C)(C)c1ccc(S(=O)(=O)NCC(=O)Nc2sc3c(c2C(N)=O)CCCC3)cc1
1.2%	O=C(COC(=O)CN1C(=O)c2ccccc2C1=O)Nc1ncc(Cl)cc1Cl
-15.1%	COC(=O)NNC(=O)c1ccc(C)cc1
?	COc1ccc(Nc2ncnc3scc(-c4ccc(OC)cc4)c23)cc1
?	O=C(/C=C/c1ccc(Br)cc1)N1CCN(c2cccc(C(F)(F)F)c2)CC1
-3.8%	O=S(=O)(c1ccc(Cl)cc1)N1CCSC1c1ccco1 (configuration not stated)
-12.7%	CCOC(=O)c1cccc(NC(=O)C2CCCN2S(=O)(=O)c2cccc3cccnc23)c1 (configuration not stated)
?	COc1ccc(-c2nc(C#N)c(NCc3ccc(F)cc3)o2)cc1OC

Brought forward from above: 2 entries; new compounds follow.
HPGD inh	SMILES
-12.7%	CCOC(=O)c1cccc(NC(=O)C2CCCN2S(=O)(=O)c2cccc3cccnc23)c1 (configuration not stated)
?	COc1ccc(-c2nc(C#N)c(NCc3ccc(F)cc3)o2)cc1OC
-2.0%	C=CCN1C(=O)C(O)(CC(=O)c2ccccc2)c2ccccc21 (configuration not stated)
-4.8%	O=C(O)C(O)C(O)(Cc1ccc(O)cc1)C(=O)O (configuration not stated)
-11.9%	Cn1ccc(NC(=O)Nc2ccc(Cl)cc2Cl)n1
-13.3%	COc1ccc(Br)cc1C1NC(=O)c2c(sc3c2CCN(C)C3)N1 (configuration not stated)
-15.3%	COCCCn1c(SCC(=O)Nc2ccc(C(=O)OC)cc2)nc2ccccc2c1=O
-3.4%	COC(=O)c1c(NC(=O)C2CCC2)sc(C(=O)N(C)C)c1C
-12.0%	Cc1nn(-c2ccccc2)c(C)c1NS(=O)(=O)c1ccccc1
-13.6%	COc1ccccc1-n1c(-c2cccnc2)n[nH]c1=S
-21.9%	COc1cc(O)c(C(C)=O)c(OC)c1
-3.3%	CCCCP(=O)(CCCC)Cc1ccccc1

With a hit mark in HPGD inh, of those listed so far:
HPGD inh	SMILES
12.6µM*	CC(=O)OCCCNc1cc(Sc2ccc(Cl)cc2)c2nonc2c1[N+](=O)[O-]
31.6µM*	Cc1ccsc1C(=O)Nc1ccc2c(c1)OCCO2

Continuation.
HPGD inh	SMILES
-1.3%	Cc1ccccc1NC(=O)C1CCCN(S(=O)(=O)c2cccc3cccnc23)C1 (configuration not stated)
-12.6%	O=[N+]([O-])c1cc(C(F)(F)F)ccc1NCCNC(=S)Nc1ccc(Cl)cc1
-12.2%	COc1nc(N(C)S(=O)(=O)c2ccc(C)cc2)nc(C)c1Cl
6.2%	C=CC(=C)CCC=C(C)C
-7.1%	Cc1ccc(OCCNS(=O)(=O)c2cccs2)cc1
?	COc1ccc(CC(=O)Nc2ccc(-c3nnc(-c4ccc(C)cc4)o3)cc2)cc1
-3.9%	COC(=O)N/N=C/c1cc(Cl)cc(Cl)c1OCc1ccccc1
-11.1%	COc1ccc(C(=O)Nc2cccc(C)c2)cc1S(=O)(=O)N1CCOCC1
-15.4%	c1ccc(Cn2nnnc2CN2CCCC2)cc1
-5.4%	CCOc1ccc(C(=O)NC2CCN(S(=O)(=O)CC)CC2)cc1
?	COCCN(CCOC)c1nc(C)nc2c1nc(-c1ccccc1)n2CCN1CCOCC1
-17.6%	N#Cc1c(N)n(CCOC(=O)c2cccc([N+](=O)[O-])c2)c2nc3ccccc3nc12
0.7%	CCOc1ccc(OCc2nnc(SCC(=O)NC3CCS(=O)(=O)C3)n2-c2ccc(Cl)cc2)cc1 (configuration not stated)
-1.5%	O=C(Nc1cccc([N+](=O)[O-])c1)c1ccc2c(c1)OCO2
-12.9%	COc1ccc(S(=O)(=O)NC2CCCC2)c(Cl)c1Cl
